Screening data deposited in PubChem BioAssay by National Center for Advancing Translational Sciences (NCATS).
D2 agonist – human D2 receptor agonism in beta-arrestin assay | AID 624465 | activation, % (no concentration beside the values) | 360,000 compounds, 0.084% hits | P14416 | DiscoveRx PathHunter D2 beta-arrestin, luminescence, 90 min; 100% = 57 uM dopamine signal; in the data active = activation above about 40%; inconclusive = about 15% to 40%; inactive = below about 15%; note: compound concentration not given in the record; the text of the record calls up to 30% inactive
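Agonist mode: compounds alone added to overnight-plated D2 PathHunter cells for 90 min at 37 C, with 57 uM final dopamine (EC100) defining full response. Beta-arrestin recruitment detected by chemiluminescent reagent, read after 1 h at ambient temperature.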
PINK1 expr mod – modulators of PINK1 expression; PINK1 immunofluorescence, high-content cytometry, 24 h; Potency, µM (top dose mostly 76.6 µM), without a hit: at the top dose activation (PINK1 increase), usual class: activators; 410,000 compounds, 0.2% hits; AID 624263; active = well fitted activation curve with a large enough effect; inconclusive = small, poorly fitted or top-dose-only effect; inactive = flat fitted curve, though single readings scatter; cell line not stated here;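 note: potency is the fitted concentration of half-maximal effect; % of control where 0% means no effect; nearly all actives have a fitted effect of over 65% in size; a mitochondrial uncoupler was the plate control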
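PINK1 protein level read as immunofluorescence by microplate cytometer in a fixed, stained stable cell line after 24 h exposure to five compound concentrations, with CCCP as control.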
Six1-Eya2 inh – blocks human Six1 binding to Eya2; AlphaScreen GST-Six1/His-Eya2 binding, biochemical; active compounds read low; control for the full effect not named in the record; activity change, % (no concentration beside the values); AID 651725; 360,000 compounds, 0.56% hits; Q15475+O00167; in the data active = activity change below about -65%; inconclusive = about -30% to -65%; inactive = above about -30%; note: % is set by controls: 0 for no effect and ±100 for the full control effect
Target sequence (O00167 whole entry, looked up): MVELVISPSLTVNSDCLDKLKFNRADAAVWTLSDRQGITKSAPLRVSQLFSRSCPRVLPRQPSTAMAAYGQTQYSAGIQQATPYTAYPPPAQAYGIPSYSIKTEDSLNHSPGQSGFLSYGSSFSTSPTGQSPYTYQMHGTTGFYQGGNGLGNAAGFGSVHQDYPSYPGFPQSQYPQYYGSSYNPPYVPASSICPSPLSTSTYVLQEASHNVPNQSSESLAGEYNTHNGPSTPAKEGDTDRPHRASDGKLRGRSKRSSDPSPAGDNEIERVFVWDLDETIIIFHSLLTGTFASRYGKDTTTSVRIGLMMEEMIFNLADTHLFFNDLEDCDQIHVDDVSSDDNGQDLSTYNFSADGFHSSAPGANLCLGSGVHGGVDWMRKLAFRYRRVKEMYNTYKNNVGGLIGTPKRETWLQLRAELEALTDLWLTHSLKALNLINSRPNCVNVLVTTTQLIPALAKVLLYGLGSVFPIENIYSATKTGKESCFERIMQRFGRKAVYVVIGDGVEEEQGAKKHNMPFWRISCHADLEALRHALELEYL
Target sequence (Q15475 whole entry, looked up): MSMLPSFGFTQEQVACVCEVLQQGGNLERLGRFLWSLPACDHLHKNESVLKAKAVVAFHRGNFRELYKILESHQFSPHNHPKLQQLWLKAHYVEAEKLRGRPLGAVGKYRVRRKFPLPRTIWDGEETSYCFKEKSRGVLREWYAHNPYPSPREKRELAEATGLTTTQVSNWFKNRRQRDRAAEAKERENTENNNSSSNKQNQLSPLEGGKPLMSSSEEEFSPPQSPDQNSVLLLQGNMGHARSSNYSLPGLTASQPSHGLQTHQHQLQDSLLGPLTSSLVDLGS
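Compounds are tested against tagged Six1 and Eya2 proteins bridged by glutathione donor and nickel acceptor beads; after a one-hour incubation at 37 °C without light, AlphaScreen emission is recorded.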
TRPML1 inh – blocks the human TRPML1 channel; Q9GZU1; TRPML1-inducible cells, Ca2+ dye fluorescence, FDSS; active compounds read low; inhibition of EC80 agonist-evoked calcium signal; activity change, negative = inhibition, % (no concentration beside the values); 390,000 compounds, 0.02% hits; AID 624415; in the data active means activity change below about -50%; inconclusive means about -30% to -50%; inactive means above about -30%;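 note: stimulus is agonist 54-4 at its EC80 concentration; % is set by controls: 0 for no effect and ±100 for the full control effect; compound concentration not given in the record; the text of the record puts the active cut at -80%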
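Tet-induced TRPML1-DL cells loaded with Ca8 no-wash calcium dye were read kinetically on FDSS. Compound addition was followed by EC80 agonist 54-4 (4 uM final); inhibition was read over 110 s.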
D2 potentiator – positive allosteric modulators of human D2 dopamine receptor. P14416. DiscoveRx D2 beta-arrestin cells, luminescence, 90 min; 100% = 57 uM dopamine signal. potentiation, % (no concentration beside the values). 360,000 compounds, 0.23% hits. AID 624464; active = potentiation of 50% or more; inconclusive = 30% to 50%; inactive = 30% or less;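 note: compound concentration not given in the record; tested on top of an EC20 dose of dopamine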
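PathHunter beta-arrestin assay in DiscoveRx D2 cells. Compounds were added with an EC20 of dopamine (50 nM final) for 90 min at 37 deg C. Luminescence was read 1 h after detection reagent, with 57 uM dopamine as the EC100 control.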
TRPML1 agonist – human mucolipin-1 channel agonism | Q9GZU1 | TRPML1-expressing cells, Ca2+ dye fluorescence, FDSS; host cell line not named in the record; reference of the full effect not given here | activation, % (no concentration beside the values) | 410,000 compounds, 0.12% hits | AID 624414; in the data active = activation above about 50%; inconclusive = about 30% to 50%; inactive = below about 30%; note: 0% is about no effect; the text of the record puts the active cut at 80%
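Agonist activity was taken from a 110 s kinetic Ca2+ dye read on the FDSS after pinning compounds onto TRPML1-DL cells. The cells were seeded at 1,500/well with Tet inducer, incubated about 16 h, then dye-loaded at room temperature.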
Starred values were filed as active, the others as inactive; ? = inconclusive; / = no result given; [ ] = remark or other dose. This is a subset. The share of hits here may be higher or lower than overall.

No.	Molecule	D2 agonist	PINK1 expr mod	Six1-Eya2 inh	TRPML1 inh	D2 potentiator	TRPML1 agonist
1	COc1ccccc1CN1CCCC(C(=O)c2ccccc2SC)C1 (stereo not given)	-8.0	7.7%	-19	1	-45	-1.5
2	Cc1ccc(CC(=O)N2CCN(Cc3ccccc3)CC2)cc1	-3.5	-0.9%	-5	-16	-9	0.3
3	O=C(O)[C@H]1NC[C@H]2C[C@H]21	-4.1	0.2%	19	13	4	0.1
4	COc1ccc(CCNCc2ccccc2F)cc1OC	-1.5	2.2%	3	-2	-17	1.1
5	Cc1cccc(-n2c(O)c(C=Nc3ccc(S(N)(=O)=O)cc3)c(=O)[nH]c2=O)c1	-7.3	1.9%	-3	0	-2	0.8
6	COc1ccc(CCC(=O)N2CCC3(CC2)OCCO3)cc1	-1.0	-1.5%[38.3 µM]	4	8	-12	0.8
7	O=C(Nc1cccc(Cl)c1)N1C[C@H]2C[C@@H](C1)c1cccc(=O)n1C2	-1.5	0.2%	1	/	-17	/
8	Oc1ccc2ccccc2c1CN1CC=C(c2ccccc2)CC1	2.4	-0.1%	-2	-14	-32	0.0
9	C=CC(=O)NCNC(=O)C=C	-3.1	0.5%	9	-22	-17	0.3
10	CCC(=NCc1ccc(F)cc1)c1c(O)n(C)c(=O)n(C)c1=O	-0.8	-2.2%[38.3 µM]	-3	3	-1	-0.3
11	CCOC(=O)C1=C(C)OC(N)=C(C#N)C12C(=O)Nc1ccc(C)cc12 (stereo not given)	3.5	-1.4%	5	-7	12	-1.0
12	CN1CCCN(C(=O)COc2ccc(Br)cc2)CC1	-0.5	-0.9%	2	-1	-9	-0.5
13	O=C1CC(=O)N(c2ccccc2)C(=O)N1c1ccccc1	1.6	3.0%	2	43	-2	0.2
14	c1ccc2c(CN3CCOCC3)c[nH]c2c1	-4.9	2.5%	-1	5	-4	0.1
15	Cc1[nH]c2ccc(OCc3ccccc3)cc2c1CCN	-3.3	0.4%	?	16	1	0.2
16	CCC1(OC(=O)c2ccccc2)CC(C)N(C)CC1C (stereo not given)	-0.9	-0.4%	7	1	-11	2.8
17	O=[N+]([O-])c1ccc(N2CCNCC2)cc1N1CCCCCC1	-5.4	0.6%	?	10	-26	1.3
18	CN1C(=O)NC(=O)C(N=Nc2ccc(Cl)cc2)C1=O (stereo not given)	-3.1	-0.5%	-15	-19	-9	-0.2
19	CCCOP(=O)(OCCC)C(NC(=O)c1cc(OC)c(OC)c(OC)c1)c1ccccc1 (stereo not given)	-0.1	8.1%	2	40	-2	-0.7
20	Cn1c(=O)cc(OCC(=O)N2CCC3(CC2)OCCO3)c2ccccc21	-3.5	-2.8%	-3	-18	-2	0.0
21	COC(=O)C1=C(c2ccc(F)cc2OCc2ccccc2)C[C@@H]2CC[C@H]1N2C(=O)NCc1ccc(OC)c(OC)c1	0.4	1.8%	-18	-23	-8	2.2
22	CCOc1ccc(C(C)=O)cc1Cc1c(O)[nH]c(=S)[nH]c1=O	-3.3	0.0%	-11	/	-21	/
23	CC(C)CCn1c(N)c(C(=O)NCc2cccs2)c2nc3ccccc3nc21	-1.2	25%[38.3 µM]	11	-9	10	-0.3
24	Cc1ccc2cc(C=C(C#N)C#N)c(Cl)nc2c1	0.7	2.4%	-1	10	3	17
25	CCOP(=O)(OCC)C(NC(=O)c1cccc(C)c1)C(Cl)(Cl)Cl (stereo not given)	-3.6	-0.1%	4	5	5	0.8

Profiles, looked up by structure. Screens in order: D2 agonist | PINK1 expr mod | Six1-Eya2 inh | TRPML1 inh | D2 potentiator | TRPML1 agonist
Cc1ccc(CC(=O)N2CCN(Cc3ccccc3)CC2)cc1 reads -3.5 | -0.9% | -5 | -16 | -9 | 0.3
CCC1(OC(=O)c2ccccc2)CC(C)N(C)CC1C (stereo not given) reads -0.9 | -0.4% | 7 | 1 | -11 | 2.8
Cc1[nH]c2ccc(OCc3ccccc3)cc2c1CCN reads -3.3 | 0.4% | ? | 16 | 1 | 0.2

The list continues.
No.	Molecule	D2 agonist	PINK1 expr mod	Six1-Eya2 inh	TRPML1 inh	D2 potentiator	TRPML1 agonist
26	CN(C)CCNC(=O)c1cccn(Cc2cc(C(F)(F)F)cc(C(F)(F)F)c2)c1=O	-2.3	2.7%	1	2	-21	1.5
27	COC(=O)CN1C(=O)CN=C(c2ccccc2Cl)c2cc(Br)ccc21	-1.4	0.7%	-1	-5	-9	0.5
28	O=c1[nH]c(=S)[nH]c(O)c1/C=C1/C=c2ccccc2=N1	-2.0	3.2%	-5	-3	-12	-0.1
29	O=C(NCCCN1CCOCC1)C(Cl)(Cl)Cl	1.4	0.0%	14	22	-5	0.1
30	COC(=O)C1=C(c2cc3ccccc3o2)C[C@@H]2CC[C@H]1N2C(=O)NCc1cccc2ccccc12	-3.2	1.6%	-15	-4	-17	0.3
31	CCC(=NCCN1CCOCC1)c1c(O)n(-c2ccccc2C)c(=O)[nH]c1=O	-1.2	-0.4%	0	-8	-3	1.4
32	CCOc1cc2c(cc1OCC)-n1cccc1C(c1ccc(F)cc1)NC2 (stereo not given)	-4.4	15%	?	/	-6	/
33	O=c1[nH]c(=O)n(-c2ccc(Br)cc2)c(O)c1C=NC(CO)(CO)CO	-4.5	-0.8%	20	5	-4	-0.2
34	CC1CC2(O)c3nonc3CCC2N1O (stereo not given)	-0.9	1.2%[38.3 µM]	-1	10	-7	-0.5
35	N#CC(C#N)=NNc1ccc([N+](=O)[O-])cc1	-8.3	?	-19	-10	-23	3.0
36	CCOP(=O)(Oc1ccccc1)c1c([N+](=O)[O-])cc(C(F)(F)F)cc1[N+](=O)[O-] (stereo not given)	-1.5	5.0%	6	-23	1	0.4
37	O=C(/C=C/c1ccccc1)NCCc1cnc[nH]1	-7.1	-1.1%	0	/	-61	/
38	Nc1ccc(Br)cc1	-1.6	2.6%	5	2	-1	-0.7
39	CCN(CC)C(=O)c1ccc(NC(=O)Nc2ccccc2F)cc1	2.9	1.8%	-6	18	3	2.4
40	COC(=O)C1=C(c2ccc3ccccc3c2)C[C@@H]2CC[C@H]1N2C(=O)N1CCC(C)CC1	-2.9	3.7%	-15	60	-17	1.2
41	CCOc1ccccc1N1C(=O)CC(=O)NC1=O	-1.6	0.6%	11	10	-9	0.3
42	c1nc2nc3c(c(N4CCNCC4)n2n1)CCCC3	-2.0	-1.0%	-1	-7	-14	3.7
43	CN(C)P1(N(C)C)=NC(C(F)(F)F)=NC(C(F)(F)F)=N1	0.2	0.1%	8	3	-7	1.4
44	COc1cccc(N2C(=O)NC(=O)C3(Cc4cc(C)ccc4N(C)C3)C2=O)c1 (stereo not given)	-4.9	-1.3%	0	26	-12	0.1
45	Nc1cc(C(=O)Nc2ccc(Cl)cc2)ccc1N1CC2CC(C1)c1cccc(=O)n1C2 (stereo not given)	0.9	1.5%	-1	5	-15	0.3
46	COc1cc(OC)c(OC)cc1CNCCc1ccc(OC)c(OC)c1	-0.3	2.1%[38.3 µM]	1	-6	-6	-0.5
47	COC(=O)C1=C(c2ccc(OC)c(OC)c2)C[C@@H]2CC[C@H]1N2C(=O)N1CCCC1	0.7	1.7%	25	1	-2	-0.2
48	Nc1ccccc1C(=O)OC1CSC1	-2.2	-2.4%[38.3 µM]	-9	24	-8	0.0
49	Cn1cc(C(=O)c2ccccc2)c2ccccc21	0.0	3.0%	13	-2	-5	-0.6
50	CC(=O)[C@H]1CCC2C3CC[C@H]4C[C@@H](O)CC[C@]4(C)C3CC[C@@]21C (stereo not given in full)	-1.5	0.8%	-2	-11	-20	-0.3
51	Cc1cc(C(=O)OCC(=O)Nc2cccc(F)c2)c(C)n1C1CC1	12	-0.4%	-9	16	-4	-0.6
52	O=C(Nc1ccc2c(c1)OCCO2)c1cccn(Cc2ccccc2)c1=O	/	1.2%	/	-14	/	0.5
53	CC1(C)COC(Nc2cccc(Cl)c2)=N1	-4.3	-1.4%	5	12	-3	-0.1
54	Cc1oc(-c2ccc(F)cc2F)nc1CN1C[C@@H]2C[C@@H](C1)c1cccc(=O)n1C2	-3.1	0.1%	-7	14	-5	3.9
55	O=C1NC(=S)N(C2CC2)C(=O)/C1=C/c1ccc2c(c1)CCN2CCCCl	-2.3	-1.0%	-10	-5	4	0.6
56	Cc1cc(C)n2c(Br)c(CN3CC4CC(C3)c3cccc(=O)n3C4)nc2n1 (stereo not given)	-3.6	-0.6%	-14	-2	-4	1.1
57	COc1ccc(N/N=C/c2c(O)n(-c3cccc(C)c3)c(=O)[nH]c2=O)cc1	-9.0	1.4%	-13	-6	-22	0.3
58	CCN(CC)C(=O)Oc1ccc(NC(=O)N2CCOCC2)cc1	4.4	1.7%	0	/	13	/
59	CC(=O)Nc1ccc(S(=O)(=O)NC(CC(=O)N2CCC3(CC2)OCCO3)C(C)C)cc1 (stereo not given)	-1.2	-0.7%	-10	-1	-24	-0.1
60	O=c1[nH]c2ccccc2n1C1CCN(Cc2ccc(-c3[nH]c4cc5ncnc5cc4nc3-c3ccccc3)cc2)CC1	/	1.2%	-29	/	/	-0.4
61	C=CCN1C(=O)NC(=O)/C(=C/c2ccoc2)C1=O	-2.1	-0.8%	-4	-5	11	2.7
62	CN(C)CCc1nn[nH]n1	-0.5	8.7%[38.3 µM]	5	-4	6	2.7
63	CN(C)CCN(C(=O)COc1ccc(Cl)cc1)c1nc2cc3c(cc2s1)OCO3	0.6	2.3%	5	19	-33	-0.6
64	CCOC(=O)C1SC2(C(F)(F)C(F)F)CC1(O)c1c(c(OC)c3occc3c1OC)O2 (stereo not given)	0.7	0.7%[38.3 µM]	1	34	3	3.1
65	COc1cc(C)c(-c2nc(CN3C[C@@H]4C[C@@H](C3)c3cccc(=O)n3C4)c(C)o2)cc1C	-2.0	-1.1%	-7	-5	-1	-0.8
66	Cc1cccc(C(=O)Nc2ccc3c(c2)CC2(C(=O)N(C)C(=O)N(C)C2=O)C2CCCN32)c1 (stereo not given)	2.2	-0.5%	-5	-9	-1	-0.1
67	CC/C(=N\Nc1ccccc1)c1c(O)n(-c2ccc(OC)cc2)c(=O)[nH]c1=O	8.1	-1.3%	4	2	-8	-0.3
